# Assay outcomes deposited in PubChem by Fisher Drug Discovery Resource Center.
# NPYLR7 agonist: agonists of mosquito NPYLR7 receptor, primary screen, cell-based, Aedes aegypti, calcium fluorescence, mosquito biting behavior; activation, % at 10 µM; Aedes aegypti neuropeptide Y-like receptor 7 (NPYLR7); HEK293T NPYLR7/Galpha15, GCaMP6s calcium fluorescence; AID 1259423, 2018; 0.15% of 270,000 active; in the data active means activation above about 40%;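 further: 0% = vehicle and 100% = reference agonist at the receptor; some compounds past the cut are filed as inactive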
# NPYLR7 agonist max-min: second read-out of NPYLR7 agonist, no call of its own (marks repeat the call); activation, %; measured here: Max-Min RFU normalised activation; some inactives read as strong as hits;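 span of the calcium signal over five minutes; 0% = vehicle and 100% = native peptide agonist; compound fluorescence can raise it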
# Starred values were filed as active, the others as inactive; & = joins results of further samples. These rows are one share of the data; rates above refer to the full screens.
SMILES,NPYLR7 agonist,NPYLR7 agonist max-min
O=c1[nH]cc(CN2CCNCC2)c(=O)[nH]1,-1,1
CN1C(=O)C(Cc2cccs2)C(=O)N(C)C1=O,-3,-6
COCCNC(=O)c1cnc(-c2cccc(C)c2)nc1N(C)C1CCN(C)CC1,24,19
CN1[C@@H]2CC[C@H]1CC(OC(=O)N1Cc3ccccc3NC1=O)C2 (some centres not stated),-12,-18
Cc1ccnc(CC(C)N(C)Cc2cnc3ccccc3n2)c1 (configuration not stated),-1,3
O=C(COc1ccc(F)cc1)N1CCN(Cc2cccc(-c3noc(-c4cccc(Cl)c4)n3)c2)CC1,6,4
Cc1c(Cl)ccc2sc(N3CCNCC3)nc12,-3,-3
O=S(=O)(F)Cc1ccccc1,2,-7
O=C1CSC2N1CCCNC21CCCCC1 (configuration not stated),0,-2
Cc1ccnc(CC(C)N(C)Cc2ccc(-c3ccn[nH]3)o2)c1 (configuration not stated),7,6
CCOC(=O)N1CCN(C2CCCN(C(=O)Cc3ccc4c(c3)OCO4)C2)CC1 (configuration not stated),21,2
O=C1c2sc3ccccc3c2CN2CCCCC12 (configuration not stated),-2,-5
O=C(c1ccc2c(c1)OCO2)N1C[C@H](c2ccccc2)[C@@H]2[C@H]1C1CCN2CC1,-6,-12
CCC(O)CN(C)C1CCN(C)C(C)C1 (configuration not stated),13,8
C#CCN(C)S(=O)(=O)c1ccc(Cn2nc(C(=O)Nc3ccc(C(N)=O)cc3)c3ccccc32)cc1,17,19
COc1cccc(CC(=O)N2CCN(Cc3cccc(-c4noc(-c5ccccc5)n4)c3)CC2)c1,3,1
Cc1cc(C(F)F)n2nc(C(=O)Nc3ccc(Cl)cc3C(=O)c3ccccc3)nc2n1,1,-8
CON(C)S(=O)(=O)c1ccc(Cn2nc(C(=O)NCCCN3CCCC3=O)c3ccccc32)cc1,18,18
O=C(C(O)c1ccccc1)N1CCN(CCOC(c2ccccc2)c2cccc(C(F)(F)F)c2)CC1 (configuration not stated),19,26
COCCNC(=O)CN1C(=O)CSC(c2ccc(F)cc2)c2c(-c3ccccc3)nn(-c3cccc(Cl)c3)c21 (configuration not stated),30,40
FC(F)(F)c1cnc(N2CCC3(CCCNC3)C2)c(Cl)c1 (configuration not stated),13,10
Cc1ccnc(CC(C)N(C)Cc2c3ccccc3nn2C)c1 (configuration not stated),-1,1
CN(C)C(=O)On1nnc2ccccc21,10,7
CN1C2CCC1CC(N1CCN(C(=O)COCC(F)(F)F)CC1)C2 (configuration not stated),2,0
C=CCOc1ccc(C=C(C#N)C#N)cc1OC,1,-1

# Next section.
SMILES,NPYLR7 agonist,NPYLR7 agonist max-min
COc1ccc(Cl)cc1S(=O)(=O)N1CCN(CCOC(c2ccccc2)c2cccc(C(F)(F)F)c2)CC1 (configuration not stated),5,4
COc1ccc(C(CN(C)C)C2(O)CCCCC2)cc1 (configuration not stated),-6&-11,-11&-14
N#CC(C#N)=Cc1c[nH]c2ccccc12,0,4
CC(c1nc(-c2ccccc2)no1)N1CC=C(c2ccc(O)cc2)CC1 (configuration not stated),17,15
Oc1cc2c(cc1CN1CCN(c3ccc(F)cc3)CC1)OCO2,2,1
COc1cc(C(=O)N2C[C@@H](c3ccccc3)[C@@H]3[C@H]2C2CCN3CC2)ccn1,-5,-4
CC(C)N1CCN(Cc2ccco2)CC1,-1,6
Cc1nc2sccn2c1C(=O)N1C[C@H]2C[C@@H](C1)c1cccc(=O)n1C2,3,2
Cc1ccc(CC(C)NCc2ccc(S(C)(=O)=O)cc2)c(C)c1 (configuration not stated),3,3
CC(N)c1cccc(Cl)c1Cl (configuration not stated),-6,-18
O=C(O)c1sc2cc(Cl)ccc2c1Cl,-4,-5
C#CCOC(=O)C1=CCCN(C)C1,5&5,-8&-19
Cc1noc2ccc(CN3CCN4C(=O)CN(C)C(=O)C4C3)cc12 (configuration not stated),9,9
C[C@]12CCC3C(CC[C@H]4C[C@H](O)CC[C@]34C)C1CC[C@@H]2C(=O)CO (some centres not stated),1,-26
N#Cc1sc2nc3c(cc2c1N)CCC3,0,6
Cc1ccc([N+](=O)[O-])cc1NC(=O)c1cccn(Cc2cccc([N+](=O)[O-])c2)c1=O,14,8
COc1cc(C=C2C(=O)N(C)C(=O)N(C)C2=O)cc(OC)c1O,-14,-24
CCCNC(=O)c1nn(Cc2ccc(S(C)(=O)=O)cc2)c2ccccc12,16,16
CCOC(=O)/C(SP(=S)(OCC)OCC)=C(/C)Nc1ccc(O)cc1,-2,-5
O=c1[nH]c(=O)n(Cl)c(=O)n1Cl,-6,1
O=C(CSC1c2ccccc2Oc2ccc(F)cc21)Nc1cccc(C(=O)O)c1 (configuration not stated),-3,-5
CC1(C)CC2=[N+]([O-])CN(O)C2C(C)(C)N1O (configuration not stated),-11,-14
COCCC(=O)N(C)C(C)Cc1ccc(Cl)cc1 (configuration not stated),-1,-2
CC(C)N1CC(C)C(OC(=O)c2ccccc2)(c2ccccc2)CC1C (configuration not stated),-1,5
Cn1ccnc1CN1C[C@@H]2[C@@H]3CC[C@@H](C3)[C@@H]2C1,11,8

# (more compounds)
SMILES,NPYLR7 agonist,NPYLR7 agonist max-min
O=C(Oc1ccc([N+](=O)[O-])cc1)N1CCC(C(O)(c2ccc3c(c2)OCO3)c2ccc3c(c2)OCO3)CC1,1,-2
COc1ccccc1/C=C/CN(C)C(C)Cc1cc(C)ccn1 (configuration not stated),5,3
FC(F)(F)c1cnc(N2CCNCC2)c(Cl)c1,-10,-14
CCCC(C)C1(CC)C(=O)NC(=S)NC1=O (configuration not stated),-13,-14
CN1CCc2[nH]c(=S)c(C#N)c(-c3ccc(F)cc3)c2C1,7,3
COc1ccc(CC(=O)N2CCN(Cc3cc(=O)c(OCc4ccc(-c5ccccc5C#N)cc4)co3)CC2)cc1,2,0
COc1cc(NC(=O)C(C2CCCC2)N2CCN(C(=O)COc3ccc(Cl)cc3)CC2)cc(OC)c1 (configuration not stated),-2,3
CN1CCN(C(=O)Cc2ccc(O)c(Cl)c2)CC1C(=O)O (configuration not stated),4,2
Cc1cc(C)c(C2=NCCN3CCNC3(C(F)(F)F)C2)c(=O)[nH]1 (configuration not stated),1,-4
O=c1ccc2[nH]cc(C3=CCNCC3)c2[nH]1,7,2
CCOc1cc2c(cc1OCC)-n1cccc1C(c1coc3ccccc3c1=O)NC2 (configuration not stated),5,36
CC(=O)c1c(O)c(C)c(O)c(Cc2c(O)c3c(c(C(=O)/C=C/c4ccccc4)c2O)OC(C)(C)C=C3)c1O,1,8
CC(Cc1cccc(Cl)c1)NC(=O)CSCc1cccs1 (configuration not stated),-3,-4
CC1CCCC2CCCN(CC(N)=O)C12 (configuration not stated),14,8
Brc1ccc(C2CC(c3cccnc3)=Nc3ncnn32)cc1 (configuration not stated),29,21
CC(=O)OC1C2CCC1C(N1CCCCC1)CC2 (configuration not stated),3,-1
O=C1OC(c2cncc(Br)c2)=N/C1=C/C=C/c1ccccc1,-12,-12
Cc1cc2nc(N3CCNCC3)sc2cc1C,-4,-5
CN1C(=O)NC(=O)/C(=C/c2ccc(C(=O)O)cc2)C1=O,1,0
O=C(c1ccccc1)c1cc(Br)ccc1NC(=O)c1c(O)c2ccccc2[nH]c1=O,31,18
COCc1nc(-c2cccc(CN3CCN(C(=O)Cc4ccccc4OC)CC3)c2)no1,1,-1
N#CC1C(=N)Oc2c(c(=O)oc3ccccc23)C1c1ccccc1[N+](=O)[O-] (configuration not stated),13,6
COc1cccc(S(=O)(=O)N2CCN(CCOC(c3ccccc3)c3ccc(F)c(F)c3)CC2)c1 (configuration not stated),2,0
O=C1c2ccccc2-c2onc3c(Br)cc(N4CC4)c1c23,-2,-11
Cc1ccnc(CC(C)N(C)CCn2c(=O)oc3ccccc32)c1 (configuration not stated),7,6

# New compounds follow
SMILES,NPYLR7 agonist,NPYLR7 agonist max-min
CSc1ncc(C(=O)N2CCN3CCN(C)CC3C2)c(=O)[nH]1 (configuration not stated),2,1
CCCCOP(=S)(CC(=O)OCC)OCCCC,-9,-16
COCCCNC(=O)CN1C(=O)CSC(c2ccsc2)c2c(C(C)(C)C)nn(-c3cccc(C)c3C)c21 (configuration not stated),11,7
Fc1ccc(C(OCCN2CCN(C/C=C/c3ccccc3)CC2)c2ccc(F)cc2)cc1,-8,-13
CCC(NCc1ccco1)c1nc2ccccc2c(=O)n1-c1ccc(Cl)cc1 (configuration not stated),-13,-7
O=C(NCCc1cccnc1)c1nn(CCCOc2ccccc2)c2ccccc12,9,12
CN(C)P(=O)(N(C)C)N1CCCc2ccccc21,-1,-12
COCCNC(=O)CN1C(=O)CSC(c2cccc(F)c2)c2c(C(C)(C)C)nn(C(C)(C)C)c21 (configuration not stated),6,18
CN(C)c1ccc(/C=C2\CCCN=C2c2cccnc2)cc1,-9,-12
COc1cccc(/C=C2\C(=O)C3CCN2CC3)c1OC,-1,-2
Cc1noc(C)c1CN1CC2CCN(c3ccccc3)C2C1 (configuration not stated),3,0
O=C(NC1CCCCCCC1)c1cn(Cc2ccccn2)cc(C(=O)N2CCSCC2)c1=O,8,8
CCOP(=O)(OCC)c1cc(C)c(O)c(C(C)(C)C)c1,1,-4
Cc1ccc(C(C)n2ccnc2-c2coc(C)n2)cn1 (configuration not stated),21,9
Cc1ncc2c(c1-c1noc(-c3cccn3C)n1)CCNC2,15,9
O=C(Cc1ccccc1)N1CCN(C2c3ccccc3CCc3ccccc32)CC1,17,0
CC(=O)Nc1ccc(S(=O)(=O)NC[C@H]2C[C@@H]3CCN2C[C@@H]3c2cc(-c3ccccc3Br)nc(C)n2)cc1,-4,-11
NC(=O)c1ccccc1NC(=O)c1cccn(Cc2ccc(Cl)cc2)c1=O,11,5
COCC(=O)N(Cc1ccccc1)CC1CNCC1c1ccc(F)cc1 (configuration not stated),10,3
CCOC(=O)C1=C(C)OC(=N)C(C(=O)OCCOC)C12C(=O)Nc1ccc(Br)cc12 (configuration not stated),-2,-3
N#Cc1ccccc1NC(=O)c1cccn(Cc2ccccc2)c1=O,24,15
O=C1NC(=S)NC(=O)C1=Cc1ccc(Br)s1,8,10
O=C(Cc1ccccc1O)N1CCN(C/C=C/c2ccccc2)CC1,0,-1
O=C(NC1CCCCCCC1)c1cn(CC2CCCO2)cc(C(=O)N2CCSCC2)c1=O (configuration not stated),25,6
c1ccc2c3c([nH]c2c1)CNCC3,-4,-7

# Additional records follow:
SMILES,NPYLR7 agonist,NPYLR7 agonist max-min
c1ccc2c(c1)ncn2C1CCCNC1 (configuration not stated),-2,-6
COc1cccc([C@@H]2CN(C(=O)c3csc(C)n3)[C@@H]3C4CCN(CC4)[C@@H]32)c1,2,-1
COC(=O)C1C2c3ccccc3OC1(C)N=c1s/c(=C/c3cn(C)nc3C)c(=O)n12 (configuration not stated),0,1
O=[N+]([O-])c1cnc2ccc3ccccc3c2c1,18,26
O=C(O)c1cccnc1CN1CCCCC1c1cccnc1 (configuration not stated),-7,-13
O=C1/C(=C/c2ccccc2)C[C@@]2(O)C3Cc4ccc(O)c5c4[C@@]2(CCN3CC2CC2)[C@H]1O5,-10,-14
CN1CCC2(CC1)CN(C(=O)Cc1nc3ccccc3[nH]1)CCCN2C,12,-5
